High-throughput results as filed in PubChem.
USP2a inh: USP2a (human) protease inhibition | USP2a enzymatic assay, qHTS inhibition | Potency, µM (highest dose often 38.3 µM), inactives show at the highest dose activity change, negative = inhibition, usual class: inhibitors | actives 0.1% (n = 60,000);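 also: potency is read from the fitted curve at half-maximal effect; nearly all actives have a fitted effect of over 60% in size; plate controls were DMSO for no effect and NEM full inhibition control for full effect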
Target sequence (O75604 whole entry, looked up): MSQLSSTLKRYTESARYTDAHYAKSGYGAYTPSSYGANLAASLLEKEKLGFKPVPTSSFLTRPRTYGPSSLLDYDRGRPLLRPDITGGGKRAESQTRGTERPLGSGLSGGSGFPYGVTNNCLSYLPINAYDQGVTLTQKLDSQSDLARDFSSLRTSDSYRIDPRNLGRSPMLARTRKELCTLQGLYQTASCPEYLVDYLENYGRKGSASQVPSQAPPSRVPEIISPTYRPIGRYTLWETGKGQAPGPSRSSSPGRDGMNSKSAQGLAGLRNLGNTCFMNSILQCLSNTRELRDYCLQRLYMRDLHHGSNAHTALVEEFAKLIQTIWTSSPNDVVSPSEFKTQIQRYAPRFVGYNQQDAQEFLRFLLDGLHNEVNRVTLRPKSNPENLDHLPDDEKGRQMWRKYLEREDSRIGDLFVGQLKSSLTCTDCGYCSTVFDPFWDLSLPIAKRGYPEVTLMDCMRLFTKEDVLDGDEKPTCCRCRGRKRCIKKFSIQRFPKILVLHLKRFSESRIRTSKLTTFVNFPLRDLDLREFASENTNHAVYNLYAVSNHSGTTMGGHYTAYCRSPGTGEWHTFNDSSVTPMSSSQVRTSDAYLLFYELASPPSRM
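Coupled readout: USP2-cleaved Ub-PLA2 (20nM final) turns over NBD C6-HPC (20uM final), Ex 460nm/Em 535nm after 2.5 h, time-zero read flagging artifacts. Enzyme (20nM final, pH 8.0 Tris) given 30 min RT with compound first; NEM defines full inhibition.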
GFP derepression: derepresses silenced GFP locus in mouse C127i cells; mouse C127i GFP locus derepression, cytometry, 30 h; Potency, µM (highest dose often 46.1 µM), for the others: top-dose GFP derepression (activation); actives 0.09% (n = 68,000); also: % of control where 0% means no effect
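Read-out is the number of GFP-positive cells, scored as fluorescent objects 20 to 120 um wide, reflecting derepression of a silenced CMV-GFP reporter in murine C127i cells after 30 h compound exposure at 37 C.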
BRCT PPI green: blocks human BRCA1 BRCT binding to phosphopeptide, green readout; actives 0.05% (n = 75,000); Potency, µM (doses to about 76.9 µM), inactives show at the highest dose activity change, negative = inhibition, actives largely listed as inhibitors; BRCA1 BRCT-phosphopeptide binding, green fluorescence polarization; P38398; AID 875;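 also: potency is read from the fitted curve at half-maximal effect; plate controls were peptide without protein for full effect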
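Fluorescence polarization: His-tagged BRCT (~35 kDa BRCA1 C-terminus, 250 nM) bound to 100 nM fluorescein-labeled phosphorylated 10-aa BACH1 peptide, pH 7.3 phosphate buffer with DTT and Tween 20. Compounds incubated 12 min at room temperature; inhibition read as lowered polarization.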
BRCT inh red: BRCT-phosphoprotein interaction inhibition (red fluorophore). BRCT-phosphopeptide binding, red fluorescence polarization. Potency, µM (top dose mostly 76.9 µM), inactives show at the top dose activity change, negative = inhibition, most hits filed as inhibitors. P38398. actives 0.03% (n = 75,000); also: % is scaled to controls: 0 for no effect and ±100 for the full control effect
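Rhodamine-labelled pBACH1 10-mer (100 nM) bound to BRCT domain (100 nM) at pH 7.3; compounds incubated 12 min room temperature, polarization read. Free peptide defines full inhibition; unlabelled decapeptide titrated as control.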
Pol III holo inh: inhibitors of bacterial DNA polymerase III holoenzyme | actives 0.25% (n = 71,000) | Potency, µM (doses to about 57.1 µM), without a hit: top-dose activity change, negative = inhibition | AID 603 | reconstituted DNA polymerase III holoenzyme replication, biochemical; also: potency is read from the fitted curve at half-maximal effect; % is scaled to controls: 0 for no effect and ±100 for the full control effect
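Reconstituted *E. coli* holoenzyme (0.35 nM Pol III, 1 nM beta, 154 nM SSB, 2 nM primase) was preincubated with compound for 15 min at RT. Synthesis on 1.4 nM ssM13Gori ran 35 min, then was stopped with PicoGreen/EDTA and read as dsDNA fluorescence.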
UbGFP stabilizer: proteasome inhibitors stabilizing ubiquitin-GFP reporter; Potency, µM (titrated, usually from 45.9 µM), without a hit: top-dose activation (GFP accumulation), most hits filed as activators; 67,000 tested, under 10 active; Ubiquitin-GFP reporter cells, proteasome inhibition, GFP fluorescence; response scale: untreated = 0%, 10 µM MG-132 = 100%; active = well fitted activation curve with a large enough effect, not every such curve was filed as active; inconclusive = small, poorly fitted or top-dose-only effect, or another doubt; inactive = no such curve, though single readings can be large or run the other way; also: potency is read from the fitted curve at half-maximal effect
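U2OS Ub(G76V)-GFP reporter; O/N plating, 0.5% FBS; cpd 46 uM–2.9 nM, 4 h, 37 °C; GFP+ cell count, 488/515 nm; norm. to basal vs 10 uM MG-132; CRC fit.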
HBB splicing: hemoglobin beta splicing modulation. AID 925. HBB splicing reporter cell assay, activation; EGFP reporter with mutant IVS2-654 intron; response scale: normalised to 500 nM splice-correcting PNA. actives 0.06% (n = 65,000). Potency, µM (titrated, usually from 46.1 µM), without a hit: at the top dose activation, hits mostly activators; also: potency is read from the fitted curve at half-maximal effect; 0% is about no effect
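Compounds were applied for 2 days to HeLa EGFP-654 cells, 500/well in Optimem with 2% FCS. The reporter's EGFP is disrupted by mis-splicing of beta-globin intron IVS2-654. Readout: summed well GFP fluorescence from 488 nm laser scanning; reference was 500 nM antisense […] 654 PNA.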
CRE Fsk mod: alters forskolin-stimulated CRE reporter signaling in CHO cells | CHO CRE-bla reporter (cAMP response element driving beta-lactamase), forskolin EC10, beta-lactamase ratio | Potency, µM (series often up to 38.2 µM), without a hit: at the highest dose activity change, negative = inhibition, actives largely listed as activators | actives 2.5% (n = 71,000) | AID 662; active = well fitted activation curve with a large enough effect in the signal ratio, with a control signal flat, not every such curve was filed as active; inconclusive = small, poorly fitted or top-dose-only effect, or effect the other way, or a change in a side signal; the % refers to the signal ratio; also: potency is read from the fitted curve at half-maximal effect; % of control where 0% means no effect
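Modulation of forskolin-driven signalling is measured in CHO cells carrying a CRE-controlled beta-lactamase reporter. Cells are stimulated with EC10 NKH 477 in the presence of titrated compound for 3 h at 37 °C, then loaded with CCF4 for 2 h at room temperature.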
ALOX15 inhib: inhibitors of human 15-lipoxygenase (ALOX15); purified 15hLO-1, xylenol orange hydroperoxide absorbance; Potency, µM (titrated, usually from 57.1 µM), for the others: at the highest dose activity change, negative = inhibition, actives largely listed as inhibitors; actives 1.4% (n = 74,000); also: potency is read from the fitted curve at half-maximal effect; % is scaled to controls: 0 for no effect and ±100 for the full control effect; nearly all actives have a fitted effect of over 55% in size
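Quantitative HTS in 25 mM Hepes pH 7.5 containing 0.01% Triton X-100: human 15hLO-1 at 40 nM, arachidonic acid at 50 uM, 6 min turnover. Product quantified via ferrous oxidation/xylenol orange, 573:405 nm absorbance ratio.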
An asterisk follows results filed as active; ? = inconclusive; · = not tested or not shown; [ ] = dose if it differs, or a comment. Unless noted, calls follow the shape of the dose curve; as a rule, active = well fitted curve in the direction sought with a large enough effect; inconclusive = small, poorly fitted or top-dose-only effect, or another doubt; inactive = no such curve, though single readings can be large; an effect the other way counts as inactive or inconclusive.

The line under a structure holds: USP2a inh, BRCT inh red, BRCT PPI green, Pol III holo inh, HBB splicing, UbGFP stabilizer, CRE Fsk mod, ALOX15 inhib, GFP derepression
> COc1cc2c(cc1OC)-c1cc(N3CCCCCC3)nc(=O)n1CC2
  17%, -0.7%, 2.8%, -7%, 3.3%[57.5 µM], -3%, 0.63µM*, 15%, 2%
> CC(NC(=O)c1cc(-c2ccccc2)on1)c1ccccc1 (stereo not given)
  -6%, -1.7%, -3.0%, -3%, 0.7%, -7%, -8%, 8%, -2%
> COc1ccc(-c2nnc(SCCC(=O)O)n2C)cc1OC
  5%, 0.4%, 0.2%, 0%, -1.4%, -2%, -5%, 0%, 0%
> COc1cc(S(=O)(=O)N2CCCCCC2)ccc1Cl
  -5%, 0.4%, -1.2%, -7%, 0.4%, -4%, ?, -16%, 0%
> O=C1c2ccccc2-c2ncnc3cccc1c23
  -8%, -1.0%, 0.1%, -3%, 2.9%, -1%, ?, -16%, 4%
> c1ccc(-c2cnc(-c3cccnc3)o2)cc1
  1%, 0.7%, 2.1%, -2%, 0.0%[9.22 µM], 0%, ?, 3%, 0%
> COC(=O)C1=C(C)NC(=O)NC1c1cc(Cl)ccc1OC (stereo not given)
  -17%, 1.0%, 0.9%, -2%, 0.3%, 5%, 0%, 3%, -3%
> CCOc1ccccc1NC(=O)C1CCN(S(=O)(=O)c2ccc(OC)c(OC)c2)CC1
  6%, -0.3%, 4.7%, -1%, -1.3%, -9%, 2%, -27%, 0%
> CN(c1ccccc1)c1nc(N2CCCC2)nc(-n2ccnc2)n1
  ?, -0.9%, 3.9%, -2%, -0.7%, 5%, ?, 33%[activator], -2%
> O=C(C1COc2ccccc2O1)N1CCCC1 (stereo not given)
  0%, 0.8%, -0.6%, 5%, -3.5%, 5%, -3%, 10%, 3%
> CC1CCc2ccccc2N1C(=O)c1cccs1 (stereo not given)
  -2%, 0.9%, 2.5%, -4%, -1.6%, -5%, 14%, 1%, 2%
> CC(C)(C)NC(=O)CN(C(=O)CCN1CCCc2ccccc21)C(C)(C)C
  -3%, -1.2%, -4.8%, -2%, ·, 0%, -3%, ?, 4%
> CCCCNC(=O)CCC(=O)Nc1ncc(-c2ccc(C)cc2)n1C
  7%, 0.7%, -0.8%, -7%, -1.4%, -3%, ?, 20%, -1%
> CCN1CCN(C(CNS(=O)(=O)c2ccc(OC)cc2)c2cccnc2)CC1 (stereo not given)
  ·, -1.1%, -1.8%, 2%, 1.0%, 2%, -2%, -1%, ·
> COc1cc(C(=S)N(C)C)ccc1O
  -8%, -2.2%, -2.9%, -8%, 4.6%, -4%, -3%, ?, 0%
> O=C(CSc1nnc2c3c4c(sc3ncn12)CCCC4)NCc1ccco1
  1%, -0.2%, -1.0%, -2%, ·, -3%, 8%, 0%, 0%
> CCCCC(=O)Nc1ccc(C(=O)NCCCn2ccnc2)cc1
  9%, -0.2%, 0.1%, -8%, -0.4%, -2%, 0%, -2%, 0%
> CCOC(=O)c1sc(N)c(C#N)c1CSc1nc2ccc(OCC)cc2[nH]1
  22%, 1.4%, 4.5%, -4%, 0.0%[57.5 µM], 6%, ?, ?, 1%
> COc1ccc(OC)c(C2NC(=O)NC(C)=C2C(=O)Nc2ccc(C)cc2C)c1 (stereo not given)
  7%, 0.5%, -1.5%, -2%, 3.5%, -16%, -1%, 4%, 2%
> COC(=O)c1ccccc1N1C(=O)C2C(C1=O)C1C=CC2C12CC2 (stereo not given)
  6%, -1.9%, -1.2%, -2%, -0.1%, -9%, 12%, -7%, -4%
> O=C(c1ccco1)N1CCN(c2ncnc3sc4c(c23)CCC4)CC1
  1%, -0.6%, 1.7%, 1%, 4.0%, -3%, 26%, ?, -2%
> CCOC(=O)/C(C#N)=C1/C=C(C)NC(c2ccccc2O)=N1
  -5%[7.66 µM], -0.7%, -1.8%, 1%[11.4 µM], 4.0%[0.0738 µM], -2%[9.17 µM], ?, -1%[11.4 µM], 3%
> c1ccc(C(c2ccccc2)N2CCN(Cc3nnnn3C3CCCC3)CC2)cc1
  33%[activator], -2.6%, 1.8%, 8%, ·, -2%, -6%, -5%, -1%
> COc1ccccc1NC(=O)c1ccc(S(=O)(=O)N2CCCC2)cc1
  ·, -1.3%, -2.1%, -4%, 2.1%, 2%, 9%, -2%, ·
> COc1nc(N2CCOCC2)nc(-n2cccc2)n1
  -2%, -0.2%, -1.3%, -2%, 0.5%, 0%, ?, 1%, 6%
> Cc1cccc(-n2nnc(C(=O)N3CCc4ccccc4C3)c2N)c1
  -6%, -0.5%, -1.3%, -18%, -1.4%, -2%, ?, 25µM*, 0%
> COc1ccc(-c2noc(C)c2-c2ccc3ccccc3n2)c(O)c1
  11%, 0.8%, -2.4%, -2%, -0.9%, 6%, -10%, 16µM*, 3%
> N#CCCN1CCN(C(CNS(=O)(=O)c2ccc(Cl)cc2)c2ccccc2)CC1 (stereo not given)
  19%, -0.1%, -0.8%, -8%, 2.0%, -7%, -5%, 7%, 6%
> CCn1c(COc2ccc(C)cc2)nnc1SCC(=O)Nc1ccc(S(N)(=O)=O)cc1
  27%, -0.9%, -2.7%, -4%, -0.1%, 20%, -7%, -1%, 0%
> O=C(O)c1cccc(S(=O)(=O)N2CCSCC2)c1
  -1%, 0.0%, -2.4%, -3%, ·, 1%, 1%, 0%, -1%
> Cc1ccc2nc(-c3cccc(S(=O)(=O)N(C)C)c3)cn2c1
  18%, -1.2%, 4.6%, -2%, 2.9%[0.369 µM], ·, ?, -14%, 0%
> Cc1nn(-c2ccccc2)c2[nH]c(=O)c(CNCC3CCCO3)cc12 (stereo not given)
  -4%, -0.3%, 0.8%, 2%, -3.1%, 2%, -14%, 3%, 0%
> Cc1cc(C)nc(SCSc2nc(C)cc(C)n2)n1
  -2%, 1.1%, -0.6%, 8%, 1.3%, 9%, 0%, -2%, 2%
> COc1cc(S(=O)(=O)N2CCCCC2)ccc1NC(=O)c1ccc(F)cc1
  8%, -1.1%, -5.7%, -5%, 0.0%, -8%, 3%, 2%, -3%
> O=c1cc(CN2CCN(c3ccccc3)CC2)c2c(ccc3ccccc32)o1
  37%[activator], 0.9%, -3.6%, 8%, 2.9%[57.5 µM], -6%, -11%, -8%, 2%
> COc1ccc(Nc2ncnc3c2cnn3Cc2ccccc2)cc1OC
  22%, -1.3%, -0.9%, 3%, -1.6%[57.5 µM], -2%, ?, -11%, 0%
> Cc1cc(NC(=O)CSc2ccc3nnc(-c4cccnc4)n3n2)no1
  ·, 0.5%, -0.6%, -4%, 1.4%, -11%, 9%, 7%, ·
> CC(=O)Nc1cc(NC(C)=O)c2nc(N)sc2c1
  4%, -1.3%, 1.4%, 1%, -1.1%, 9%, -2%, 0%, 2%
> O=c1c2ccccc2[nH]c(=S)n1CCN1CCC(=C(c2ccc(F)cc2)c2ccc(F)cc2)CC1
  ·, ·, ·, ·, ·, ·, ·, ·, -4%[20.6 µM]
> COc1ccccc1NC(=O)C1=C(C)Nc2nnnn2C1c1cccc(C)c1 (stereo not given)
  ·, -0.9%, -5.6%, -3%, -0.6%, 12%, -7%, -17%, -2%
> CCc1ccc(N2C(=O)C3ON(c4ccccc4)C(c4ccco4)C3C2=O)cc1 (stereo not given)
  20%, 1.2%, -1.7%, -2%, -3.3%[57.5 µM], -7%, -5%, -8%, -2%
> Cc1ccc(C(=O)NCCCn2ccnc2)o1
  0%, -0.2%, 1.1%, -2%, 0.1%[9.22 µM], 5%, -3%, -4%, -2%
> Cc1cc(C(=O)NCCCn2ccnc2)sc1-c1ccccc1
  29%, -0.5%, -1.7%, 2%, 1.6%, 4%, ?, 2%, 2%
> CCOC(=O)Cn1c(C)cc(=O)c2cccc(C)c21
  -7%, 0.4%, 0.1%, -3%, -5.6%, 10%, 20%, -4%, 0%
> COC(=O)Nc1ccc(S(=O)(=O)N2CCCCCC2)cc1
  7%, -0.1%, 1.1%, 2%, 3.5%, -1%, 1%, 3%, 0%
> O=C(NCCCn1ccnc1)c1csc2ccccc12
  -2%, 0.1%, 0.1%, -4%, -2.1%, -2%, -7%, 11%, 0%
> O=C(NCc1ccc(F)cc1)c1cnc2sccn2c1=O
  ·, -0.5%, -2.2%, -4%, 0.0%, -2%, 0%, 7%, ·
> COc1cccc(OCC(=O)Nc2ccccc2C(N)=O)c1
  6%, 0.8%, -2.1%, -3%, -1.5%[57.5 µM], -4%, 6%, -3%, 6%
> COc1cc(NS(=O)(=O)c2ccc(F)cc2)c(C(=O)O)cc1OC
  -2%, 0.1%, -0.6%, 0%, -0.6%, 1%, -2%, 0%, 6%
> Cc1nc(SCCCSc2n[nH]c(C)n2)n[nH]1
  0%, -2.0%, -2.1%, -3%, 0.2%, -7%, 1%, 10%, 0%
> O=S(=O)(NC1CCCCC1NCc1ccco1)c1ccccc1 (stereo not given)
  7%[7.66 µM], 0.5%, 1.4%, -3%[11.4 µM], 0.3%[0.0738 µM], 0%[9.17 µM], 10%[7.6 µM], 2%[11.4 µM], 0%

An excerpt, so the mix of outcomes need not match the whole.
